VDR inh: Inhibitors of the vitamin D receptor (VDR): qHTS | AID 504847, 2011 | VDR-SRC2-3 peptide fluorescence polarization, 2 h | 400,000 tested, 0.93% active | Potency, µM, inactives show max response, negative = inhibition, most hits filed as inhibitors | Vitamin D3 receptor (Homo sapiens), P11473; active = well fitted inhibition curve with a large enough effect; inconclusive = small, poorly fitted or top-dose-only effect, or another doubt; inactive = no such curve, though single readings can be large or run the other way; note: series mostly up to about 120 µM
Target sequence (P11473 whole entry, looked up): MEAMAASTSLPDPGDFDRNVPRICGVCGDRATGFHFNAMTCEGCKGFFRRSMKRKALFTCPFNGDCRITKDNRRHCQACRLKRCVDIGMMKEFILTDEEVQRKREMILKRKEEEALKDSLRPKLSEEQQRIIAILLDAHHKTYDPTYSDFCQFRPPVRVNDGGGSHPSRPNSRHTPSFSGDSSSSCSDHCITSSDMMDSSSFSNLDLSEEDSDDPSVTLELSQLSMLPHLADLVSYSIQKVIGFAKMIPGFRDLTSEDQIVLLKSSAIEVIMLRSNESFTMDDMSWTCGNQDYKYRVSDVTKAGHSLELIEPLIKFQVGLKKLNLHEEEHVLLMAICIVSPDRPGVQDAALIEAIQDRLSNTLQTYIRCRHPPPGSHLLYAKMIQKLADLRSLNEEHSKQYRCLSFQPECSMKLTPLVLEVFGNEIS
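Fluorescence polarization assay measuring small-molecule disruption of VDR binding to the coregulator peptide SRC2-3. Compounds were pin-transferred (23 nl) into the reagent mix and incubated 2 h at room temperature before reading.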
An asterisk follows results filed as active; u = inconclusive; & = joins results of further samples; [ ] = another dose, or the depositor's remark. % is set by controls: 0 for no effect and ±100 for the full control effect; potency is the fitted concentration of half-maximal effect. This is a subset. The share of hits here may be higher or lower than overall.

SMILES	VDR inh
Oc1sc(C=Nc2ccc(F)cc2)c2ccccc12	-1%
COc1ccc2c(c1)C1NC(=S)NC(C)(O2)C1C(=O)Nc1ccc(C)cc1C (stereo not given)	u
COc1ccc(S(=O)(=O)NCC2CCCN(C(=O)c3ccco3)C2)cc1 (stereo not given)	-28%
N[C@H](C(=O)O)[C@H]1C[C@@H]1C(=O)O	0%&-5%
OC(C#CCN1CCCCC1)c1ccccc1 (stereo not given)	0%
O=C(CCSc1nc(-c2ccco2)cc(C(F)(F)F)n1)Nc1ccc2c(c1)OCO2	4%
COc1ccccc1C(=O)OCc1nc(N)nc(Nc2ccccc2C)n1	3%
CC1CC(C)CN(C(=O)CNC(=O)c2ccc3ccccc3c2)C1 (stereo not given)	1%
CCNS(=O)(=O)c1ccc(CCC(=O)N2CCc3ccccc3C2)cc1	-23%
COc1ccc(S(=O)(=O)N2CCOCC2)cc1NC(=O)CCNC(=O)c1ccc([N+](=O)[O-])cc1	-8%
COc1ccc(C(=O)/C=C/NCc2ccc(C)cc2)cc1	13%
COc1ccc(N=C2SC(CC(=O)Nc3cccc(Cl)c3)C(=O)N2Cc2ccco2)cc1 (stereo not given)	-6%
O=C(CN1CCN(Cc2ccccc2)CC1)N/N=C/c1c[nH]c2ccccc12	-3%
Cc1ccc(-c2noc(CCC(=O)NCCCN3CCN(c4ccc(F)cc4)CC3)n2)cc1	4%
Cc1cccc(C)c1NC(=O)C1(N(Cc2ccco2)C(=O)CC2NC(=O)NC2=O)CCCC1 (stereo not given)	-4%
COCCSc1nnc(NC(=O)C2CC(=O)N(c3ccc(Cl)cc3)C2)s1 (stereo not given)	-12%
COc1ccc(N(C(=O)c2snc(C(N)=O)c2N)C(C(=O)NCc2ccc(F)cc2)c2ccc(O)cc2)cc1 (stereo not given)	4%
CCOC(=O)/C=C/C(=O)Nc1ccc(S(=O)(=O)N2CCCCCC2)cc1	-8%
CN(C(=O)c1cccc(NC(=O)c2ccco2)c1)c1ccccc1	-5%
CCCc1ccc(OC(C)c2nc(-c3ccc(-n4cccc4)cc3)no2)cc1 (stereo not given)	-10%
CC1CCN(c2ccc3nnc(CCC(=O)NCC(C)c4ccccc4)n3n2)CC1 (stereo not given)	-9%
COCCN(C(=O)CNC(=O)c1ccco1)C(C(=O)NC1CCCC1)c1ccc(OC)c(OC)c1 (stereo not given)	-7%
O=C(O)/C(=C\c1ccc(-c2ccc(F)cc2)o1)c1ccccc1	-3%
COC(=O)c1ccc(NC(=O)CCc2c(C)nc3c(-c4ccccc4)c(C)nn3c2C)cc1	-14%
O=C(c1oc2ccccc2c1CSCc1ccccc1)N1CCN(c2ncccn2)CC1	5%
O=C(NCCCN1CCCC1=O)c1ccc(NS(=O)(=O)c2cccc([N+](=O)[O-])c2)cc1	1%
CCOC(=O)/C=C/C(=O)OCC(=O)Nc1ccc(C)cc1	u
COC(=O)/C=C/c1cc(O)ccc1O	-6%
C[C@@H]1CN([C@H](C)CO)C(=O)Cc2cc(NC(=O)CCC(F)(F)F)ccc2O[C@@H]1CN(C)C(=O)Nc1ccccc1	1%
CC1CCCC(NC(=O)c2cccs2)C1C (stereo not given)	-13%
CC(=O)c1ccc(-c2nnc(CCC(=O)N3CCCC(C(=O)CC(C)C)C3)o2)s1 (stereo not given)	9%
CCOC(=O)c1sc2ncn(/N=C/c3cccnc3)c(=O)c2c1C	10%
COc1cccc(C2=NO[C@@H]3C(=O)N(Cc4ccccc4)C(=O)[C@H]23)c1OC	12%
Cc1cc(N2CCN(c3ccccc3)CC2)nc(NCc2ccccc2)n1	1%
Cc1ccc(S(=O)(=O)NCc2ccccc2)cc1C(=O)NC(C)c1ccc(S(N)(=O)=O)cc1 (stereo not given)	-5%
c1ccc(-c2ccc(OCCCn3cncn3)cc2)cc1	16%
CCN1CCN(CCNC(=O)c2ccc(/C=C3/Sc4ccccc4N(Cc4ccccc4C)C3=O)cc2)CC1	0%
Cc1ccc(S(=O)(=O)N2CCN(c3nc(-c4ccncc4)nc4ccccc34)CC2)cc1	-25%
COCCCN1C(=O)C(=O)/C(=C(/O)c2ccc(C)cc2)C1/C=C/c1ccccc1 (stereo not given)	31%[activator]
CCc1ccccc1NC(=O)Cn1c(=O)n(-c2ccccc2)c(=O)c2oc3ccccc3c21	3%
Cc1cccc(C)c1OCC(=O)Nc1cccc(-c2nnc(-c3ccccc3)o2)c1	0%
C=CCn1c(SCC(=O)NCCCO)nc2sc3c(c2c1=O)CCC3	11%
OCCC1CCCCN1CC(O)COCc1ccc(Cl)cc1 (stereo not given)	-2%
CC1C(=O)C(C)(C)C(=O)OC1c1ccc([N+](=O)[O-])cc1 (stereo not given)	-11%
CCn1c2c(c3cc(Cl)ccc31)CCCC2=O	-5%
O=C(C1CCCN(S(=O)(=O)c2cccc3nsnc23)C1)N1CCN(c2ccccc2)CC1 (stereo not given)	-3%
CCc1ccc(NC(=O)CS(=O)CC(=O)NCC2OCCc3ccccc32)cc1 (stereo not given)	-4%
CN(C)Cc1ccccc1-c1cncnc1NCc1ccccc1	-1%
O=[N+]([O-])c1ccc(SCc2ccncc2)nc1	-3%
Cc1ccc(C(=O)N/N=c2\oc3ccccc3cc2C(N)=O)cc1	11%
COCC(=O)Nc1nc2n(n1)C(c1ccccc1)CC(c1ccc(OC)cc1)N2 (stereo not given)	-7%
COc1ccccc1-n1c(C)cc(/C=C2\C(=N)N3N=C(CC(=O)N4CCOCC4)SC3=NC2=O)c1C	-22%
CC(C)NC(=O)NC(=O)CN1C(=O)NC2(CCc3ccccc3C2)C1=O (stereo not given)	35%[activator]
Cc1ccc(C(=O)NNC(=O)c2cccs2)cc1	-6%
COc1ccc(C)cc1NC(c1nnc(-c2ccccc2)o1)c1ccc(F)cc1Cl (stereo not given)	7%
CC(C)CNC(=O)COC(=O)C1c2ccccc2Oc2ccccc21	-5%
O=C(COC(=O)c1c2ccccc2cc2ccccc12)NCC(F)(F)F	-12%
CN(Cc1nc(-c2ccc3c(c2)OCO3)no1)CC1(N2CCOCC2)CCCCC1	-8%
Cc1ccc(-n2nc3c(n2)/C(=N/O)CC/C3=N\O)cc1	-13%
COc1cccc(C(c2nnnn2Cc2ccc(F)cc2)N2CCC(C(N)=O)CC2)c1OC (stereo not given)	-4%

(next part)
SMILES	VDR inh
CCn1c2ccccc2c2cc(C3N=C(N)Nc4nc5ccccc5n43)ccc21 (stereo not given)	7%
C=CCn1c(=O)c(C(=O)Nc2cc(C)ccn2)c(O)c2ccccc21	-12%
O=C(c1ccc2[nH]c(=O)c(=O)[nH]c2c1)N1CCN(c2ccccc2)CC1	-21%
CCc1cccc(NC(=O)c2ccc(CNc3c(N4CCCC4)c(=O)c3=O)cc2)c1	-6%
O=C(c1ccco1)N1CCC2(CC1)CN(Cc1cc(C(F)(F)F)cc(C(F)(F)F)c1)C2	-5%
COCCNC(=S)N1CCc2cc(OC)c(OC)cc2C1c1cccs1 (stereo not given)	3%
Cc1cccc2cc(C(c3nnnn3Cc3ccccc3)N3CCN(c4ccccc4)CC3)c(=O)[nH]c12 (stereo not given)	-2%
COc1ccc(-c2cc(C(F)(F)F)n3nc(C(=O)Nc4sc5c(c4C#N)CCC(C)C5)cc3n2)cc1OC (stereo not given)	3%
Cc1nn(C)cc1NC(=O)c1nn(C)cc1[N+](=O)[O-]	0%
O=C(Cc1cccc(NC(=O)C2CCCN(C(=O)C3CCCCC3)C2)c1)Nc1ccc(C(=O)N2CCCCC2)cc1 (stereo not given)	-10%
CCc1ccccc1N1CC(C(=O)N2Cc3ccccc3CC2C(N)=O)CC1=O (stereo not given)	10%
CCn1c(=O)c(CCC(=O)N2CCN(c3ccccn3)CC2)c(C)c2c(C)nn(-c3cccc(C)c3)c21	-8%

Retrieved one by one from above (2):
SMILES	VDR inh
CCc1cccc(NC(=O)c2ccc(CNc3c(N4CCCC4)c(=O)c3=O)cc2)c1	-6%
O=C(c1ccc2[nH]c(=O)c(=O)[nH]c2c1)N1CCN(c2ccccc2)CC1	-21%

(cont.)
SMILES	VDR inh
COc1ccc(-c2csc3nc[nH]c(=O)c23)cc1OC	-16%
COc1ccccc1CNc1ncnc2ccc(-c3c(C)noc3C)cc12	-27%
CC(=O)Nc1ccc(SC[C@H](CC(C)C)N2CCN(CCc3ccccc3)CCC2=O)cc1	3%
O=C(O)c1ccc(Nc2nc(-c3ccccc3)cs2)cc1	-2%
CCN(CC(=O)Nc1c(F)cccc1F)C(=O)c1ccc(S(=O)(=O)N(CC)c2ccccc2)cc1	12%
CCCC(=O)NCCCCNC(=O)CCC	-2%
O=C(Cn1ncc2c([nH]c3ccccc32)c1=O)Nc1ccc(CN2CCCCC2)cc1	-18%
Cc1ccc(NC(=O)c2ncn[nH]2)cc1	-12%
Cc1ccc(NC(=O)CC2NCCN(Cc3ccccc3)C2=O)cc1 (stereo not given)	-22%
O=C(CC1NCCc2ccccc21)Nc1ccc(Oc2ccccc2)cc1 (stereo not given)	-14%
CCN(CC)S(=O)(=O)c1ccc(-c2csc(C)n2)s1	13%
CCOC(=O)c1ccc(N2CCOCC2)c(NC(=O)c2c(-c3ccccc3)noc2C)c1	-2%
O=C(O)C1CC=CCC1C(=O)NCCc1cccc(Cl)c1 (stereo not given)	16%
CC(C)OC(=O)CC1=NC(=O)CS1	9%
CCCc1c(NC(=O)Nc2ccc(F)cc2)cnn1-c1ccccc1	-31%
C=CCSc1nc2ccccc2n1S(=O)(=O)c1ccc(Cl)cc1	1%
Cc1cc(NC(=O)c2cncc(Br)c2)no1	-9%
Cc1ccccc1C(=O)Nc1cc(NC(=O)c2ccccc2C)cc(C(=O)O)c1	8%
O=C(Cc1ccc(F)cc1)N1CCC(c2nc3c(nnn3Cc3ccc(F)cc3)c(=O)[nH]2)CC1	6%
COCCn1cnnc1SCC(=O)Nc1sccc1C(N)=O	-2%
Cc1cc(C(=O)CSc2nnnn2-c2ccc(Cl)cc2)c(C)n1CC1CCCO1 (stereo not given)	19%
O=C(COc1cc(F)ccc1[N+](=O)[O-])N1N=C(c2cccs2)CC1c1ccco1 (stereo not given)	0%
COCCNC(=O)CN1C(=O)NC2(CCOc3ccccc32)C1=O (stereo not given)	-7%
COc1ccc(CNc2nc3c(-c4ccccc4)nnn3c3ccccc23)cc1	0%

Some of the entries above in another layout.
SMILES,VDR inh
Cc1ccc(NC(=O)c2ncn[nH]2)cc1,-12%
Cc1ccc(NC(=O)CC2NCCN(Cc3ccccc3)C2=O)cc1 (stereo not given),-22%
O=C(CC1NCCc2ccccc21)Nc1ccc(Oc2ccccc2)cc1 (stereo not given),-14%
CCN(CC)S(=O)(=O)c1ccc(-c2csc(C)n2)s1,13%
CCOC(=O)c1ccc(N2CCOCC2)c(NC(=O)c2c(-c3ccccc3)noc2C)c1,-2%
O=C(O)C1CC=CCC1C(=O)NCCc1cccc(Cl)c1 (stereo not given),16%
CC(C)OC(=O)CC1=NC(=O)CS1,9%
CCCc1c(NC(=O)Nc2ccc(F)cc2)cnn1-c1ccccc1,-31%
C=CCSc1nc2ccccc2n1S(=O)(=O)c1ccc(Cl)cc1,1%
Cc1cc(NC(=O)c2cncc(Br)c2)no1,-9%
Cc1ccccc1C(=O)Nc1cc(NC(=O)c2ccccc2C)cc(C(=O)O)c1,8%
O=C(Cc1ccc(F)cc1)N1CCC(c2nc3c(nnn3Cc3ccc(F)cc3)c(=O)[nH]2)CC1,6%
COCCn1cnnc1SCC(=O)Nc1sccc1C(N)=O,-2%
Cc1cc(C(=O)CSc2nnnn2-c2ccc(Cl)cc2)c(C)n1CC1CCCO1 (stereo not given),19%
O=C(COc1cc(F)ccc1[N+](=O)[O-])N1N=C(c2cccs2)CC1c1ccco1 (stereo not given),0%
COCCNC(=O)CN1C(=O)NC2(CCOc3ccccc32)C1=O (stereo not given),-7%
COc1ccc(CNc2nc3c(-c4ccccc4)nnn3c3ccccc23)cc1,0%

Next part
SMILES	VDR inh
CC(=O)c1cccc(NC(=O)CC(C)n2ccnc2)c1 (stereo not given)	-15%
CCOc1cc(S(=O)(=O)NCc2ccccc2)ccc1Br	3%
Cc1ccc(Cn2nc(C)c(NC(=O)CCCn3nc([N+](=O)[O-])c(Cl)c3C)c2C)cc1	1%
CN1CCN(C(c2cccc(Cl)c2)c2ccccc2Cl)CC1 (stereo not given)	-1%
CCOCc1nc(N)[nH]c(=O)c1Cc1ccc(OC(C)C)cc1	-11%
Cc1ccc(NC(=O)CSc2nnc(C3COc4ccccc4O3)o2)c(Cl)c1 (stereo not given)	-4%
COc1ccc(N2CCN(C(=O)c3ccc(CS(=O)c4cccc(C)c4)o3)CC2)cc1 (stereo not given)	-11%&-7%
Cn1nc(-c2ccc(C(=O)N3CCN(CCO)CC3)cc2)c2ccccc2c1=O	-6%
COc1cccc(C(=O)OCC(=O)Nc2sc3c(c2C(N)=O)CCC3)c1O	1%
Cc1c(Cl)cccc1-c1ccc(/C=C(\C#N)c2nc3ccccc3[nH]2)o1	-9%
NS(=O)(=O)c1ccc2nc(NC(=O)c3ccc4ncsc4c3)sc2c1	-2%
O=C(O)c1ccc(NS(=O)(=O)c2ccc(Cl)c(C(=O)Nc3ccccc3[N+](=O)[O-])c2)cc1	-17%
COc1cc(OC)cc(-c2nnc(SCC(=O)N3c4ccccc4Sc4ccccc43)o2)c1	6%
O=C(c1ccncc1)N1CCN(S(=O)(=O)c2cccc(F)c2)CC1	-11%
COc1ccccc1/C=C/C=N/NC(=O)Cc1cccs1	4%
CC1CCCN(c2cc3c(cc2[N+](=O)[O-])C(=O)N(c2ccccc2)C3=O)C1 (stereo not given)	-1%
CC(C)OC(=O)C(CC(=O)O)N1CCOCC1 (stereo not given)	-2%
CCCC1=C(C(=O)OCC)C(c2c(C)nn(-c3ccccc3)c2Cl)C(C#N)=C(N)O1 (stereo not given)	-15%
COc1cccc(Nc2ncc3nc(-c4cccs4)c(=O)n(C[C@H]4CCCO4)c3n2)c1	10%
CC12CCC=CC1C(c1ccc(/C=C/c3ccccc3)cc1F)N(Cc1ccccc1)C2=O (stereo not given)	1%
Cc1ccc(Nc2nc(N)nc(CSc3ncccn3)n2)cc1	-3%

Compound activity as filed in PubChem BioAssay.
